Screening results (PubChem BioAssay)
rRNA inh HTS: inhibitors of bacterial rRNA selective over humanized ribosomes | AID 720706 | GFP signal change (wild-type ribosome), % (test concentration not listed) | 350,000 compounds, 1.6% hits | E. coli WT GFP vs humanized-ribosome RFP mutants, fluorescence, 24 h; stronger effect = lower value; DMSO median 0, no signal -100;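 active = significant combined selectivity score with lowered wild-type GFP, culture density cut under 30%, mutant RFP and density less affected; inactive = any of these conditions unmet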; note: one replicate is shown; some compounds called inactive have numbers as strong as hits
FGF22 binding: binders of recombinant human FGF22 by thermal shift. AID 651658. 340,000 compounds, 1.5% hits. calls only at 9.99 µM. SYPRO orange fluorescence; percent of sucrose octasulfate shift, DMSO zero. Q9HCT0;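 active = melting point raised past a set limit in the mean and every replicate; inconclusive = no clear call; three in four hits are not shown here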
AF4-AF9 inh: MLL-AF4/AF9 protein interaction inhibition | P42568 | AlphaScreen, biotin-AF4 peptide binding to FLAG-AF9 | inhibition, % at 10 µM | 350,000 compounds, 0.47% hits | AID 651704;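 active = every replicate reaching a set inhibition limit, whatever the replicate mean, cut at about 25% in these data; inconclusive = mean inhibition reaches that limit but some replicates miss it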;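 note: 0% = plate neutral control median and 100% = total signal loss; the record names both 10 and 1 µM as test concentration; the first replicate is given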
Target sequence (P42568 whole entry, looked up): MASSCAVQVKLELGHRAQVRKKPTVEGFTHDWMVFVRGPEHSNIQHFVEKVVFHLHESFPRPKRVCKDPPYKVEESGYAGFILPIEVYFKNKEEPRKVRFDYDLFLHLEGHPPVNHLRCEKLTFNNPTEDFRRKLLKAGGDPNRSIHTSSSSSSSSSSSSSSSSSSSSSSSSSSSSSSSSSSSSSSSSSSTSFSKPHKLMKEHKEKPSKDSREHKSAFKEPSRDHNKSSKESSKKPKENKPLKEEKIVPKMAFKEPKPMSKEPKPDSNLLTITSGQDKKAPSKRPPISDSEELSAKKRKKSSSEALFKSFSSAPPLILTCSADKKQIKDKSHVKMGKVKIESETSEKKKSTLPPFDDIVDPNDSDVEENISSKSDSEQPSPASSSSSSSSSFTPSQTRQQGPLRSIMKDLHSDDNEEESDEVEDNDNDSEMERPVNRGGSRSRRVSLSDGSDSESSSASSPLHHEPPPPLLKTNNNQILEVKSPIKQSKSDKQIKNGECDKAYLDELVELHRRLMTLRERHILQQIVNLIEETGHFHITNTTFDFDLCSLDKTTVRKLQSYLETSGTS
ALR inh: inhibitors of human sulfhydryl oxidase ALR | 290,000 compounds, 3.8% hits | inhibition, % (test concentration not listed) | P55789 | purified ALR, DTT oxidation, H2O2 HRP-luminol luminescence | AID 485317;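 active = mean and each replicate at 75% or more; inconclusive = only one of the two met; inactive = neither met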;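 note: stock transfer was 7.5 nL into about 7.5 µL; 0% = neutral wells and 100% = wells with inactivated enzyme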
HNF4A DNA FP: change in binding of human HNF4 alpha to DNA; HNF4a-FITC DNA binding, fluorescence polarization, 1 h; 360,000 compounds, 0.3% hits; P41235; activity change, % at 10 µM; in the data active = activity change above about 30%, passing the limit was not always enough;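 note: controls were the assay level and a saturating level of protein; the project sought stronger binding though the title names inhibitors; some compounds called inactive have numbers as strong as hits; positive values seem to mean higher polarization but the record does not say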
Target sequence (P41235 whole entry, looked up): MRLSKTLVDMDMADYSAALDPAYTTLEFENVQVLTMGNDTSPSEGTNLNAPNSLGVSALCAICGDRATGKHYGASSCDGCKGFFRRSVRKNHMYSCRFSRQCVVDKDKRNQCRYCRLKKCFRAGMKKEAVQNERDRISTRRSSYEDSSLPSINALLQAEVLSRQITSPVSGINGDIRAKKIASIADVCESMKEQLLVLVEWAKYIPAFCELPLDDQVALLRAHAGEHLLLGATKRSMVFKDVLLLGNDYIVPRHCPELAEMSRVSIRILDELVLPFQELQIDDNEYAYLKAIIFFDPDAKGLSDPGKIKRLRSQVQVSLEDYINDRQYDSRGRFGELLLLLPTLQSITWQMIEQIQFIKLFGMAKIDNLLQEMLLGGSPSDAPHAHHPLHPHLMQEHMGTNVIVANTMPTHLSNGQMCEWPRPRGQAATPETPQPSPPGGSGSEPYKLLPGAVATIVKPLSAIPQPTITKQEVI
Ecoli growth: E. coli growth inhibition. Escherichia coli growth, OD600, 23 h; stronger effect = lower value. OD600 absorbance (no concentration beside the values). 330,000 compounds, 0.21% hits;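 active = OD600 absorbance below the run mean of sample wells minus 3.6 SD, in any replicate, cut at about 0.56 in these data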;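 note: stock transfer was 300 nL into about 60 µL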
Vif TR-FRET: HIV-1 Vif–A3G interaction blockers – biochemical, TR-FRET, GST-Vif 1-94, biotin-A3G peptide, dose response retest, primary screen (AID 1117319) | TR-FRET GST-Vif / biotin-A3G peptide binding; higher % means a stronger effect; test concentration not given here; strong numbers were not always called active | one-dose inhibition, %; IC50 in µM for titrated hits | 260,000 compounds, 0.57% hits;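 active = above the screen mean plus three standard deviations and confirmed in dose response; inconclusive = results disagree or hit not tested in dose response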;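 note: Vif residues 1-94 fused to GST binding biotinylated APOBEC3G peptide 110-148; 0% = full assay without inhibitor and 100% = GST in place of GST-Vif; retest series ran down from 100 µM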
rRNA inh HTS OD600: second read-out of rRNA inh HTS, no call of its own (marks repeat the call); OD600 change, %; measured here: OD600 growth;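 optical density of the mix in the first replicate; 0 = DMSO median and -100 = no signal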
rRNA inh HTS RFP: second read-out of rRNA inh HTS, no call of its own (marks repeat the call); RFP signal change, %; measured here: RFP humanized mutant strains;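 first replicate; 0 = DMSO median and -100 = no signal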
Starred values were filed as active, the others as inactive; i = inactive; u = inconclusive; x = not tested or not shown; & = joins results of further samples. Only part of the results is shown. The share of hits here may be higher or lower than overall.

nr	mol	FGF22 binding	Ecoli growth	AF4-AF9 inh	Vif TR-FRET	rRNA inh HTS OD600	ALR inh	rRNA inh HTS RFP	HNF4A DNA FP	rRNA inh HTS
1	C[C@@H]1CCCCO[C@H](CN(C)S(=O)(=O)c2ccccc2)[C@@H](C)CN([C@H](C)CO)C(=O)c2cc(NC(=O)Cc3ccccc3)ccc2O1	i	x	2.3&0.7	-3%	6&2	x	1.4&0.5	-0.5	2&1
2	O=C1c2ccccc2C(=O)N1CC(O)CNc1ccc(Br)cc1 (configuration not stated)	i	0.68	0.5	7%	5	21	0.1	0.4	-2
3	COc1ccc(S(=O)(=O)Nc2ccc3c(c2)CC(=O)N([C@@H](C)CO)C[C@H](C)[C@@H](CN(C)C(=O)Nc2cccc4ccccc24)O3)cc1	i	x	-0.2	x	1	x	-2.2	x	-1
4	C[C@@H]1CN([C@H](C)CO)C(=O)c2cc(NC(=O)NC3CCCCC3)ccc2O[C@@H]1CN(C)C(=O)Nc1ccc(F)cc1	i	x	-1.5	x	-4	x	0.5	x	-1
5	C(=N\Nc1ccccn1)/c1cccnc1	i	x	-0.8	x	5	6	-3.4	-0.3	-1
6	Cc1cc(NS(=O)(=O)c2ccc(NC(=O)/C=C/c3ccco3)cc2)nc(C)n1	i	0.66	2.9	27%	0	7	0.0	1.0	9
7	Nc1nc(SCc2ccc(Cl)cc2)ns1	x	0.71	x	22%	x	29	x	0.9	x
8	COc1cccc(C#Cc2cnc3c(c2)C(=O)N([C@@H](C)CO)C[C@@H](C)[C@@H](CN(C)C(=O)C2CCCCC2)O3)c1	i	x	-6.4	x	3	x	-3.1	x	-1
9	CC(C)(C)C(=O)c1c(N)[nH]c(C(=O)c2ccccc2)c1-c1c(F)cccc1F	i	x	2.2	x	-11	x	1.8	3.0	6
10	CC(C)Oc1ccc(C(=O)NC(=S)N2CCOCC2)cc1	x	0.72	x	2%	x	-2	x	2.2	x
11	Cc1c(NC(C)C)c(=O)n(-c2ccccc2)n1C	i	0.69	-9.1	x	x	97*	x	0.9	x
12	NC(=O)NC(c1ccccc1)c1ccccc1F (configuration not stated)	x	0.7	x	3%	x	-6	x	2.7	x
13	COCCn1nnnc1SCC(=O)NCc1ccc2c(c1)OCO2	i	0.67	1.0	x	5	96*	0.1	-4.7	15
14	Cc1ccc(N2Cc3ccccc3OC(C)C2=O)cc1 (configuration not stated)	i	0.66	-5.8	-2%	-5	2	0.8	-2.3	3
15	CCCN(CC(=O)Nc1ccccc1C)C(=O)c1ccc(N2CCCCC2)c([N+](=O)[O-])c1	i	0.64	13	7%	-26	x	3.3	-7.0	-5
16	Cn1cccc1C(=O)NC(=O)CSc1nnc(C2CC2)n1-c1ccccc1	x	0.7	x	6%	x	x	x	1.1	x
17	CCc1ccccc1Nc1cc(C(=O)NCc2ccccn2)c2ccccc2n1	i	0.66	3.3	x	-7	-5	-2.6	-1.5	-3
18	O=C1CCN(Cc2ccc([N+](=O)[O-])cc2)CCN1[C@H](CO)c1ccccc1	i	x	-11	x	10	x	-1.1	-2.1	-1
19	O=C(NC1CCS(=O)(=O)C1)c1cc2c(=O)n3ccccc3nc2n1Cc1ccccc1 (configuration not stated)	i	x	-2.4	10%	x	x	x	2.6	x
20	COc1ccc(CN2CNc3nc4ccccc4n3C2)cc1	x	0.72	x	-3%	-14	-2	3.5	-0.6	-2
21	COc1ccccc1NC(=O)CSc1nnc(CNC(=O)c2cccs2)o1	i	0.65	-14	x	9	-84	-0.5	2.3	8
22	CCOC(=O)C1=C(C)NC(C)=C(C(=O)OCC)C1c1cccc(C)n1	i	0.69	x	1%	17	x	1.2	-0.1	8
23	C[C@@H]1CN([C@@H](C)CO)S(=O)(=O)c2ccc(C#CC3CCCCC3)cc2O[C@@H]1CN(C)C(=O)Cc1ccncc1	i	x	9.7	x	-5	x	13	x	2
24	CC(C)(Oc1ccc(CCNC(=O)c2ccc(Cl)cc2)cc1)C(=O)O	i	0.66	-6.2	u	2	-4	1.7	-3.5	1
25	COc1ccc(S(=O)(=O)N2CCCCN3[C@@H](CO)[C@H](c4ccc(C#CC(C)C)cc4)[C@@H]3C2)cc1	i	x	3.4	x	-32*	x	-0.3*	x	-46*
26	C[C@@H]1CCCCO[C@@H](CN(C)C(=O)CCC(F)(F)F)[C@@H](C)CN([C@H](C)CO)C(=O)c2cc(NS(=O)(=O)c3cccs3)ccc2O1	i	x	-0.5	x	-3&-4	x	-1.5&-0.5	x	-4&3
27	O=C(CSc1nc(=O)n2ccccc2n1)N1CCN(c2ccccc2)CC1	i	0.63	0.4	0%	14	70	-1.4	-0.4	2
28	COc1ccccc1COCC(O)CN1CCN(S(=O)(=O)c2cccc(F)c2)CC1 (configuration not stated)	i	0.63	-0.4	4%	-9	-3	-7.9	0.3	-13
29	O=C(Cc1ccccc1)NCC1CCCO1 (configuration not stated)	x	0.69	x	u	x	-18	x	1.7	x
30	O=C(O)Cc1ccc2c(c1)N(S(=O)(=O)c1cccc(C(F)(F)F)c1)CC(C(=O)O)O2 (configuration not stated)	x	0.69	x	-4%	x	x	x	-3.2	x
31	CC(C)[C@H](NC(=O)N1CCC(Cc2ccccc2)CC1)C(=O)O	i	0.68	0.7	-7%	6	-16	3.0	1.2	2
32	CC(=O)Nc1n[nH]c(=S)s1	i	x	-5.8	x	5	x	3.4	-1.7	5
33	O=C(OC1C2CCC1C1CN(CCc3ccccc3)CC12)c1ccccc1 (configuration not stated)	x	0.59	x	-8%	x	2	x	1.8	x
34	CC(=NNC(=O)CSc1nc2ccccc2o1)c1ccco1	i	0.7	-1.5	-3%	9	7	-1.1	3.3	-6
35	C/C=C/c1ccc2c(c1)O[C@H](CN(C)C(=O)CC1CC1)[C@H](C)CN([C@H](C)CO)S2(=O)=O	i	x	-2.3	x	-9	x	1.2	x	-4
36	c1cncc(C2SCCCS2)c1	i	x	0.3	6%	-3	x	0.2	-1.1	-3
37	Cc1cccc2nc(COc3ccc(-c4ccccc4)cc3)cn12	x	0.62	x	-5%	x	6	x	x	x
38	C=CCOc1ccc(Br)cc1/C=C1/SC(=Nc2ccc(C(=O)O)cc2)NC1=O	i	0.66	0.8	-4%	-7	x	4.4	-2.5	20
39	C[C@H]1CN([C@@H](C)CO)C(=O)Cc2cc(NC(=O)Cn3cnnn3)ccc2O[C@@H]1CN(C)S(=O)(=O)c1ccccc1	i	x	-3.0	x	4	x	-1.3	x	2
40	CN1CCN(Cc2c(O)ccc3c2oc(=O)c2ccccc23)CC1	x	0.65	x	u	x	44	x	-1.6	x
41	COc1ccc(S(=O)(=O)N(C)C[C@@H]2Oc3ccc(NC(=O)Cc4ccccc4)cc3CC(=O)N([C@H](C)CO)C[C@@H]2C)cc1	i	x	0.6	x	-7	x	4.6	x	-5
42	CCCc1cn(CC[C@@H]2CC[C@H](NC(=O)Nc3ccccc3F)[C@H](CO)O2)nn1	i	x	-0.1	x	-3	x	1.0	x	-1
43	O=C(C[C@@H]1CC[C@@H]2[C@H](COC[C@H](O)CN2Cc2ccccc2)O1)N[C@@H]1CCN(Cc2ccccc2)C1	i	x	4.1	x	-14	x	0.7	x	-3
44	COc1ccccc1CNC(=O)C[C@H]1CC[C@H]2[C@@H](COC[C@H](O)CN2C(=O)Nc2ccc(F)cc2)O1	i	x	0.1	x	4	x	-3.0	x	1
45	O=C(CCCCCn1c(SCC(=O)c2ccccc2)nc2ccccc2c1=O)NCc1ccco1	x	0.72	x	-5%&5%	x	-4	x	-0.1	x
46	O=C(COC(=O)/C=C/c1ccc([N+](=O)[O-])cc1)NC1CCCCC1	i	0.63	-0.8	-1%	20	5	-1.9	-2.3	6
47	COc1ccc(C(=O)NCc2nnc(SCC(=O)Nc3cccc(OC)c3)o2)cc1	i	0.68	-0.6	0%	7	-14	-0.6	2.3	2
48	Cc1cccc(C(=O)NCC(=O)N(C)Cc2nc3ccccc3c(=O)[nH]2)c1	i	0.69	1.2	x	11	-6	-0.9	2.7	3

Part of the list above, limited to Vif TR-FRET and rRNA inh HTS:
No. | Compound | Vif TR-FRET | rRNA inh HTS
45 | O=C(CCCCCn1c(SCC(=O)c2ccccc2)nc2ccccc2c1=O)NCc1ccco1 | -5%&5% | x
46 | O=C(COC(=O)/C=C/c1ccc([N+](=O)[O-])cc1)NC1CCCCC1 | -1% | 6

Further structures follow.
nr	mol	FGF22 binding	Ecoli growth	AF4-AF9 inh	Vif TR-FRET	rRNA inh HTS OD600	ALR inh	rRNA inh HTS RFP	HNF4A DNA FP	rRNA inh HTS
49	O=C(c1cccc(C(F)(F)F)c1)C1CCCN(C(=O)Cn2cncn2)C1 (configuration not stated)	i	0.69	0.6	4%	20	-1	-2.4	-5.6	9
50	COc1ccc(CNC(=O)COC(=O)c2c[nH]c(=O)[nH]c2=O)cc1OC	x	0.66	x	u	x	-20	x	0.9	x
51	COC(=O)c1c(NC(=O)CSc2nc3ccccc3c(=O)n2-c2ccccc2)sc(C)c1C	i	0.66	0.0	1%	11	-4	-0.3	-4.0	13
52	COc1cc2c(cc1OC)C(c1cccs1)N(C(=O)c1cccnc1)CC2 (configuration not stated)	i	0.68	2.9	-5%	-19	-11	-3.1	2.6	-11
53	C1CN=C(NC23CC4CC(CC(C4)C2)C3)C1	x	0.69	x	-2%	x	-22	x	2.5	x
54	COc1ccc(Sc2nnc(Cc3ccccc3)c3ccccc23)cc1	x	0.69	x	-7%	x	-2	x	1.0	x
55	O=C(Nc1ccc(F)cc1)c1cnc(-c2ccccc2)nc1-c1ccccc1	x	0.72	x	3%	x	-1	x	-3.5	x
56	Cc1ccccc1NC(=S)N1CCN(Cc2ccc3c(c2)OCO3)CC1	x	0.67	x	x	x	-5	x	-0.9	x
57	O=C(NC1CCCCC1)C(C1CC1)N1CCc2ccccc2C1 (configuration not stated)	i	x	-0.4	x	8	x	-0.3	-0.6	17
58	CC(=O)c1cccc(NC(=O)C(C)OC(=O)CCN=C2NS(=O)(=O)c3ccccc32)c1 (configuration not stated)	x	0.67	-1.0	1%	11	1	0.4	1.7	17
59	Cc1cc(N(CC(=O)O)S(C)(=O)=O)ccc1Br	x	0.77	x	u	x	2	x	-1.0	x
60	CCOC(=O)C1=C(COC(=O)c2cc(S(=O)(=O)N(C)C)ccc2C)NC(=O)NC1C (configuration not stated)	i	0.65	7.1	20%	16	x	2.4	-5.3	7
61	CC(C)Cc1ccc(CN2CCCC(NC(=O)CCn3cnnn3)C2)cc1 (configuration not stated)	i	x	1.5	20%	17	-6	1.5	-2.2	13
62	CN(C)CCNC(=O)c1ccc(Cl)c2cc3ccccc3nc12	i	x	10	x	-72	x	-14	-25	-48
63	C/C(=C\C(=S)Nc1ccccc1)Nc1cccc2ccccc12	x	0.72	x	x	x	-19	x	1.3	x
64	COC(=O)c1oc2nc(C)cc(C)c2c1N	x	0.66	x	23%	x	-32	x	0.3	x
65	Cn1cc(Br)c(C(=O)Nc2sc3c(c2C(N)=O)CCC3)n1	x	0.73	x	-7%	x	-6	x	-1.2	x
66	O=C(CSc1ccccc1C(=O)O)NC1CCCCCCC1	x	0.73	x	1%	x	-15	x	1.0	x
67	Cc1ccc(CCN2CC(C(=O)NC(C)C)CC2=O)cc1 (configuration not stated)	i	0.69	-1.7	-4%	7	x	1.5	6.0	15
